RanGTP-Impb inh – inhibitors of RanGTP-importin-beta interaction, primary screen, biochemical, FRET, CFP-Ran, YFP-importin-beta, homogeneous. Ran GTPase (GTP-bound) - importin-beta complex. cell-free CFP-Ran/YFP-importin-beta FRET ratio. 300,000 tested, 1.1% active. inhibition, % (no concentration beside the values). AID 2216, 2009;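 active = most replicates above 15%; inconclusive = exactly half above 15%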;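 note: 0% = DMSO wells and 100% = Ran loaded with GDP instead of GTP; wells of about 40 µL received 100 nL stock; the first replicate is given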
LANA-H2A inh – blockers of LANA interaction with H2A/H2B – biochemical, FP readout, HTS, primary screen; Protein LANA1 (Human herpesvirus 8 type P (isolate GK18)), Q9QR71; inhibition, % (concentration not given with the values); 320,000 tested, 0.6% active; cell-free LANA-H2A/H2B peptide, fluorescence polarization; AID 2629, 2010; in the data active = inhibition mostly above about 10%, no sharp cut-off; inactive = mostly below about 6.7%;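 note: stock transfer was 7.5 nL into about 10 µL; 0% = median of vehicle wells and 100% = median of positive control wells; one replicate is shown; the record names a cut of 25% in any replicate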
Target sequence (Q9QR71 whole entry, looked up): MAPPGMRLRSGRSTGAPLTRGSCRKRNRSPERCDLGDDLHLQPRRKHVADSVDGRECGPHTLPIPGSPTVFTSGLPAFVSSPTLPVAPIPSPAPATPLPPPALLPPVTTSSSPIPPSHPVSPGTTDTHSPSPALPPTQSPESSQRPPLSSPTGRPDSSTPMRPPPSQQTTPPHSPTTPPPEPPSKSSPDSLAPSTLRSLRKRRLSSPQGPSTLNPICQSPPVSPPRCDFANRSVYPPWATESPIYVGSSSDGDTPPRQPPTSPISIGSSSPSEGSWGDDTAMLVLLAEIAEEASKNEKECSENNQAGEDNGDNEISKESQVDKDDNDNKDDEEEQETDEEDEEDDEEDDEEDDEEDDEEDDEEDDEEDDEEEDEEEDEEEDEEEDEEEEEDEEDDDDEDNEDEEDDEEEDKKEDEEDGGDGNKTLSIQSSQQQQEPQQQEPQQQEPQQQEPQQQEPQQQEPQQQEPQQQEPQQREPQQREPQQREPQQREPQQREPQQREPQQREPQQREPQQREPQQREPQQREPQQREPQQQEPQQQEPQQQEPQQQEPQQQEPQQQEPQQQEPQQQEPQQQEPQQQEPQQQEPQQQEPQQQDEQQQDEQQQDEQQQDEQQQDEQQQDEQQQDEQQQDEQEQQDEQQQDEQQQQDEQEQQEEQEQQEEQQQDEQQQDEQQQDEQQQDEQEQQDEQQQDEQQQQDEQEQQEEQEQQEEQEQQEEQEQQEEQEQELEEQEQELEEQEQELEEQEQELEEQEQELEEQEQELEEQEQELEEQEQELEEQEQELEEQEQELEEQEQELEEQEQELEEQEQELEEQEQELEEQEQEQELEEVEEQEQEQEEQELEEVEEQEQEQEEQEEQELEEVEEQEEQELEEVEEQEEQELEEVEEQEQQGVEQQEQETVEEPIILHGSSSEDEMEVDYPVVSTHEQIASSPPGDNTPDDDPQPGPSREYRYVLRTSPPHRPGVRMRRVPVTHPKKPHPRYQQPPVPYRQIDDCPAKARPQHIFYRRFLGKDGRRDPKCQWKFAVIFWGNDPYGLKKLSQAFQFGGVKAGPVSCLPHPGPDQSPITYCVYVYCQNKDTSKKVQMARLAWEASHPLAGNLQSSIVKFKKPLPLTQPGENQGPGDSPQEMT
Bfl-1 A1 inh – caspase 3/7 activation in MEF A1-2A-BIM cells, primary screen, A1 inhibitor project, cell-based, luminescence, HTS; Caspase-Glo 3/7 luminescence, 3 h; percent of clofoctol response, vehicle zero; caspase activation, % (test concentration not listed); 330,000 tested, 0.066% active; AID 2462, 2010;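 active = over half of replicate activation scores above 10%, or exactly half above 10 with the replicate mean above 10; inconclusive = replicate mean below 10 yet half the replicates above 10; inactive = over half of replicates below 10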;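 note: wells of about 30 µL received 50 nL stock; many hits fall short of the cut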
Beta apoptosis – inhibitors of cytokine-induced beta cell apoptosis, primary screen, luminescence. INS-1E cytokine-induced death, ATP luminescence, 48 h; percent of positive-control rescue, neutral wells zero. protection from apoptosis, % (no concentration beside the values). 300,000 tested, 0.8% active. AID 435005, 2010;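 active = all replicates at 75% or more, or half of them and the mean; inconclusive = half reach 75% but not the mean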;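 note: 0% = cytokine-treated negative control wells and 100% = positive control rescue; higher means more ATP so stronger rescue from cytokine killing; wells of about 40 µL received 100 nL stock; the first replicate is given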
Vif A3G – inhibitors of Vif binding to APOBEC3G peptide, primary screen, biochemical, TR-FRET, GST-Vif 1-94, biotin-A3G peptide, dose response retest (AID 1117319). Virion infectivity factor (Human immunodeficiency virus type 1 group M subtype B (isolate …. TR-FRET GST-Vif / biotin-A3G peptide binding; higher % means a stronger effect; test concentration not given here; strong numbers were not always called active. one-dose inhibition, %; IC50 in µM for titrated hits. 260,000 tested, 0.57% active;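 active = above the screen mean plus three standard deviations and confirmed in dose response; inconclusive = results disagree or hit not tested in dose response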;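 note: Vif residues 1-94 fused to GST binding biotinylated APOBEC3G peptide 110-148; 0% = full assay without inhibitor and 100% = GST in place of GST-Vif; retest series ran down from 100 µM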
Calb FLC – C. albicans growth inhibition with fluconazole, primary screen, CaCi-2 strain, Alamar Blue fluorescence; growth inhibition, % (no concentration beside the values); 300,000 tested, 0.57% active; C. albicans CaCi-2 (fluconazole-resistant clinical isolate) + fluconazole, 48 h;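 active = most replicates above 75%; inconclusive = exactly half above 75%; inactive = most below 75%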;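 note: all wells also contain fluconazole at 8 µg/ml as a sub-toxic cotreatment; 0% = median of DMSO wells and 100% = median of geldanamycin control wells; wells of about 8 µL received 7.5 nL stock; the first replicate is given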
MLL AF4-AF9 inh – inhibitors of AF4 peptide binding to AF9, primary screen, biochemical, AlphaScreen, biotin-AF4 peptide, FLAG-AF9, single point; AID 651704, 2012; Protein AF-9 (Homo sapiens), P42568; inhibition, % at 10 µM; 350,000 tested, 0.47% active;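 active = every replicate reaching a set inhibition limit, whatever the replicate mean, cut at about 25% in these data; inconclusive = mean inhibition reaches that limit but some replicates miss it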;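 note: 0% = plate neutral control median and 100% = total signal loss; the record names both 10 and 1 µM as test concentration; the first replicate is given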
T cruzi inh – inhibitors of intracellular T. cruzi growth, primary screen, luminescence, NIH3T3 host cells | T. cruzi beta-gal in NIH3T3, 90 h | inhibition, % (no concentration beside the values) | 300,000 tested, 1.4% active;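 active = mean inhibition across valid replicates above about 55%, limit read from the data; inconclusive = mean below that limit but half or more replicates reach it; inactive = mean below it, under half of replicates reach it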;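 note: signal also drops with host cell toxicity which is not excluded here; 0% = plate median of DMSO wells and 100% = zero luminescence signal; higher percent means less beta-gal luminescence so fewer parasites; stock transfer was 50 nL into about 50 µL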
Active calls of the source: *; ? = inconclusive; . = no result given; & = joins results of further samples.

SMILES	RanGTP-Impb inh	LANA-H2A inh	Bfl-1 A1 inh	Beta apoptosis	Vif A3G	Calb FLC	MLL AF4-AF9 inh	T cruzi inh
Cc1ccc(CN(C(=O)c2ccco2)C2CCS(=O)(=O)C2)cc1 (stereo not given)	0.8	-2.4	0.0	-1	3%	-2	0.4	2
Cc1nn(-c2cccc([N+](=O)[O-])c2)c(N)c1-c1ccccc1	-3.1	-0.5	-0.5	.	.	-15	12	-4
N#Cc1cc([N+](=O)[O-])ccc1N1CCCC1	1.9	-1.5	0.8	3	10%	-3	2.6	-10
Cc1c(-c2ccccc2)oc2c(C(=O)N3CCN(c4ccc([N+](=O)[O-])cc4)CC3)cccc2c1=O	0.6	3.8	-0.9	0	17%	6	-14	17
Cc1ccc(NS(=O)(=O)c2ccc(C(C)(C)C)cc2)cn1	-1.2	-0.9	-1.2	3	.	8	-11	-11
O=C(COc1ccccc1)OCC(=O)N1CCCc2ccccc21	-1.3	1.8	0.5	-4	2%	1	-0.3	-3
C=CCNC(=O)C1CCN(c2nc(C)cc(-c3ccccc3)n2)CC1	0.3	3.8	0.4	4	13%	-34	1.2	-14
O=C(NCCCn1ccnc1)c1nn2c(C(F)(F)F)cc(-c3ccccc3)nc2c1Cl	-1.6	2.9	0.1	6	3%	-3	2.8	7
O=C(Nc1cccc2cccnc12)c1cc(F)c(F)cc1Cl	-2.2	4.8	0.0	-1	.	3	3.8	14
O=C(NC1CCN(Cc2ccccc2)CC1)c1ccc(CS(=O)c2ccc(F)cc2)o1 (stereo not given)	1.6	-1.4	1.2	4	-5%	-17	0.5	24
COCCCNC(=O)c1cc(Sc2ccc(F)cc2)nc2ccccc12	-0.8	-1.0	0.0	-3	.	7	.	-16
COc1ccc(-c2cc3ccc(OCC(=O)NCC4CCC(C(=O)O)CC4)cc3oc2=O)cc1 (stereo not given)	4.9	3.5	-3.4	.	.	4	-1.8	-13
CSCCOC(=O)c1[nH]c2c(c1C)C(=O)CC(c1ccco1)C2 (stereo not given)	3.4	0.2	0.3	20	?	-4	-2.0	-6
O=C(N/N=C/c1cccc2cccnc12)[C@H]1C[C@@H]1c1ccccc1	2.5	2.4	-0.5	2	0%	19	.	1
COC(=O)Cn1c(C(O)c2ccccc2)nc2ccccc21 (stereo not given)	0.5	1.1	0.0	-3	.	-2	1.5	0
Cc1ccc(C(=O)c2c[nH]cc2-c2ccccc2)cc1	-0.2	2.5	0.7	-5	-7%	-24	.	-17
COc1ccc(N(CC(=O)N2CCc3ccccc3C2)S(=O)(=O)c2c(C)[nH]c(=O)[nH]c2=O)cc1	2.3	0.6	0.6	1	1%	-1	-13	-7
Cc1cc(C)c(OCC(=O)Nc2ccc3c(c2)OCO3)cc1C	7.4	-3.5	0.4	1	1%	-4	.	5
CC(C(=O)Nc1cc([N+](=O)[O-])ccc1Cl)N1CCN(c2ccccc2O)CC1 (stereo not given)	-0.1	3.9	0.7	9	.	32	.	5
Cc1ccc(OCCNC(=O)CNC(=O)c2ccc3c(c2)OCO3)cc1	9.5	-2.4	0.1	1	.	-1	-1.1	-23
O=c1c(Cl)c(N2CCOCC2)cnn1-c1nc2ccccc2[nH]1	1.7	6.8	0.1	11	-5%	19	-1.1	-5
O=C(c1ccccc1)c1ccc(Sc2ccc([N+](=O)[O-])cc2)cc1	-3.6	-0.9	0.3	8	.	-2	-7.5	40
CC(OC(=O)c1ccccc1NCCO)C(=O)Nc1ccc(S(=O)(=O)N2CCOCC2)cc1 (stereo not given)	-4.6	1.7	-0.8	0	8%	4	-8.1	2
Cc1noc(C)c1S(=O)(=O)N1CCCC(C(=O)NCc2ccccn2)C1 (stereo not given)	-2.7	-0.7	-0.4	1	?	-2	.	-2
COc1ccccc1CC(=O)NC1CCC(C)CC1 (stereo not given)	-2.7	-0.3	0.7	0	3%	-9	-0.2	6
COc1ccc(C(=O)CC(=O)C(=O)Nc2ccc(OC)c(Cl)c2)cc1	7.8	-3.0	0.6	4	-9%	-2	3.9	-14
CC(NC(N)=O)C(=O)Nc1ccc(Cl)c(S(=O)(=O)Nc2ccc(Br)cc2)c1 (stereo not given)	3.2	-2.1	-0.5	.	10%	2	-2.1	-8
CCOC(=O)c1sc2ccccc2c1OC(=O)c1ccc(C)cc1	1.4	.	0.4	2	.	-25	.	-10
COc1ccc(-c2cc(C(=O)Nc3sc4c(c3C#N)CCCC4)c3ccccc3n2)cc1	.	6.8	-0.8	-2	.	.	-3.1	.
COc1ccc(-c2n[nH]c(=S)n2CC(C)C)cc1	6.7	-1.2	-0.3	1	-2%	5	.	-11
O=C(CSc1ccc(F)cc1)NC1CCCCC1	-2.7	-2.8	0.6	-4	.	2	1.1	-2
CCOc1ccc(S(=O)(=O)N2CCCC(C(=O)N3CCOCC3)C2)cc1 (stereo not given)	2.0	-7.3	-0.1	-4	-4%	-3	-7.6	-3
Cc1cccc(C)c1NC(=S)N(CCN(C)C)Cc1cccs1	-1.3	3.1	0.0	-3	-4%	-16	-0.2	-3
O=[N+]([O-])c1ccc(N2CCN(S(=O)(=O)c3ccc(Cl)c(Cl)c3)CC2)cc1NCCN1CCOCC1	2.0	-0.4	-2.6	-2	?	0	-1.6	56*
OC(c1ccccc1)c1ccncc1 (stereo not given)	0.7	-8.4	0.2	-10	.	-6	1.5	-28
O=[N+]([O-])c1ccc(N=NN(CCO)CCO)cc1	?	-3.1	0.4	-2	-2%	-5	1.1	-16
CC(=O)NC(Cc1ccc(F)cc1)C(=O)NC1CCN(c2ncccc2[N+](=O)[O-])CC1 (stereo not given)	0.8	8.5	0.0	1	-6%	2	-0.4	11
c1csc(CNc2nc3ccccc3n2CCN2CCOCC2)c1	0.2	1.1	-1.2	.	1%	10	.	5
COc1ccc(CNC(=O)CCc2cc(OC)c(OC)c(OC)c2)cc1	-4.3	-2.8	0.8	2	-9%	-4	-2.9	-3
Cc1nc2c(cnn2-c2ccc(Cl)cc2)c(=O)n1-c1ccc(N2CCC(C)CC2)cc1	4.8	.	.	.	20%	-1	.	23

In the list so far, 2 contain a cyano group:
SMILES	RanGTP-Impb inh	LANA-H2A inh	Bfl-1 A1 inh	Beta apoptosis	Vif A3G	Calb FLC	MLL AF4-AF9 inh	T cruzi inh
N#Cc1cc([N+](=O)[O-])ccc1N1CCCC1	1.9	-1.5	0.8	3	10%	-3	2.6	-10
COc1ccc(-c2cc(C(=O)Nc3sc4c(c3C#N)CCCC4)c3ccccc3n2)cc1	.	6.8	-0.8	-2	.	.	-3.1	.

Next structures:
SMILES	RanGTP-Impb inh	LANA-H2A inh	Bfl-1 A1 inh	Beta apoptosis	Vif A3G	Calb FLC	MLL AF4-AF9 inh	T cruzi inh
O=C(CN(C(=O)CNS(=O)(=O)c1ccccc1)C1CCCC1)NCC1CCCO1 (stereo not given)	-3.5	-1.9	-0.9	-11	-2%	1	.	-8
COCc1ccc(C(=O)N2CCCC(CNC(=O)c3ccc(F)cc3)C2)o1 (stereo not given)	0.0	3.7	1.7	2	6%	1	-1.9	2
COc1cccc2c1CCC(NC(C)=O)C2=O (stereo not given)	3.6	5.4	-0.1	-6	1%	11	3.8	0
CCc1cc(=O)oc2c(C)c(OCC(=O)NCc3ccccn3)ccc12	-0.4	3.0	-0.5	-1	.	0	-3.2	-7
CCOc1ccc(C(=O)NCC(=O)OCC(=O)Nc2ccccc2OCC)cc1	-1.8	-4.6	0.5	-1	-3%	-5	.	-3
N#Cc1c(-c2ccccc2)ccnc1N1CCOCC1	-2.1	0.8	1.0	-1	1%	-7	-3.0	2
CN(CCOc1ccc(Br)cc1)C(=O)CNC(=O)c1ccc2ccccc2c1	1.2	10	-0.4	-5	.	0	-3.2	3
O=C(CCn1c(=O)c2ccccc2n(CC(=O)NC2CCCC2)c1=O)NCCc1ccc(Cl)cc1	1.5	-0.9	1.2	2	-2%	-2	.	5
O=C(c1ccc(C(=O)N2CCCc3ccccc32)s1)N1CCCc2ccccc21	-1.3	-2.1	-0.2	4	7%	114*	.	14
CN(Cc1ccccc1)C(=O)c1[nH]cnc1C(=O)NCCCCCNC(=O)OC(C)(C)C	.	3.0	1.2	-2	.	.	-0.9	.
COc1ccc(CN(C(=O)c2cc(=O)c3cc(C)cc(C)c3o2)C2CCS(=O)(=O)C2)cc1 (stereo not given)	-0.4	-8.3	-0.2	-12	?	7	0.0	-26
NC(=O)c1ccccc1NC(=O)/C=C/C(=O)O	5.0	4.2	-0.4	-6	5%	5	.	-30
C/C(=N\NC(=O)Cc1ccccc1)c1cccnc1	2.9	-1.9	0.6	-6	2%	-13	0.5	1
O=C1c2[nH]nc(-c3ccccc3O)c2C(c2ccc(F)cc2)N1CC1CCCO1 (stereo not given)	0.7	-2.4	-0.4	11	-8%&1%	-2	.	3
C=CCNC(=S)N1CCN(c2cccc(C(F)(F)F)c2)CC1	-2.8	0.5	-0.8	6	.	5	0.7	-9
COc1ccccc1-c1csc(Cc2nnc3n2CCCCC3)n1	2.1	2.6	0.6	-2	15%	-9	.	0
O=C(Cc1ccc(S(=O)(=O)N2CCCCC2)s1)Nc1cccc2ccccc12	4.0	4.3	0.3	-2	1%	-12	.	6
COCCNC(=O)C(c1ccc(F)cc1)N(Cc1ccccc1)C(=O)CCC(=O)Nc1ccccn1 (stereo not given)	-2.2	-2.6	-0.2	-2	.	24	3.0	2
Cc1cccc2c(=O)c(C(=O)NCc3cccs3)c[nH]c12	?	5.2	-0.5	.	.	-1	7.5	16
O=C(Nc1c(Cl)cccc1Cl)c1cc(=O)n(Cc2ccccc2)c(=O)[nH]1	0.6	-0.6	0.3	-9	0%	-2	.	-15
OCCCNCc1cccc2ccccc12	3.5	2.8	-4.6	.	9%	-5	.	16
O=C(O)c1cc(Sc2ccc(Br)cc2)nc2ccccc12	-3.2	.	.	.	.	20	-1.0	12
COC(=O)c1cc(S(=O)(=O)NC2CCCCC2)cn1C	-2.9	1.3	-0.1	-3	.	-4	-1.0	6
Cc1ccc(C(=O)c2c3ccccc3[n+]([O-])n2[C@@H](C)C(N)=O)cc1	0.6	-0.4	-1.5	-2	.	-3	1.1	-14
C[C@H](CO)N1C[C@H](C)[C@@H](CN(C)C)Oc2c(NC(=O)CCCCCC(=O)Nc3ccccc3N)cccc2C1=O	.	1.3	-0.3	5	.	.	-1.0	.
Cc1ccc(-c2nc3ccc(Cl)cc3c(=O)n2O)cc1	-3.1	1.9	-0.6	4	6%	106*	-0.9	-3
C=CCn1c2ccccc2c2nnc(SCC(N)=O)nc21	-2.5	6.5	0.6	-7	-6%	-8	-0.7	1
C(=N\n1cnnc1)/c1ccc2c(c1)OCCO2	2.8	-0.1	-0.3	3	2%	?	.	-12
CN(Cc1ccncc1)C1CC(=O)N(c2ccc(Cl)cc2)C1=O (stereo not given)	1.4	-3.3	?	.	8%	3	.	-9
